NS1 function inh: qHTS Assay for Inhibitors of Influenza NS1 Protein Function; S. cerevisiae slowed by influenza A NS1, growth recovery by OD600; Potency, µM (highest dose often 46.1 µM), inactives show at the highest dose activity, positive = more growth; hit rate 0.4% among 270,000; AID 2326, 2010; active means well fitted rising curve with a large enough effect; inconclusive means small, poorly fitted or top-dose-only effect; inactive means no such curve, though single readings can be large or run the other way; also: nearly all actives have a fitted effect of over 50% in size
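S. cerevisiae expressing influenza A NS1, grown in glucose, washed, then diluted 1:100 into pH 6.0 -URA galactose medium with 23 nl compound. Growth recovery read as OD600; NS1-free strain serves as control.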
RE007 growth inh: qHTS Assay for Inhibitors of the HIV-1 protein Vpr | hit rate 0.21% among 360,000 | S. pombe RE007 Vpr strain, BacTiter-Glo ATP luminescence, 24 h; control for the full effect not named in the record | Potency, µM (titrated, usually from 92.2 µM), for the others: at the highest dose activity change, negative = less growth; active = well fitted falling curve with a large enough effect; inconclusive = small, poorly fitted or top-dose-only effect; inactive = no such curve, though single readings can be large or run the other way;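 also: % is scaled to controls: 0 for no effect and ±100 for the full control effect; nearly all actives have a fitted effect of over 50% in size; the assay follows cell death caused by Vpr and the record does not say whether a fall means rescue or toxicity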
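Fission yeast strain RE007, carrying one chromosomally integrated HIV-1 vpr copy, was seeded at OD 0.01 in PMG+AL medium with 23 nL pinned compound. After 24 h at 30 °C and 99% humidity, viability was read by BacTiter-Glo luminescence.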
SARS PLpro yeast: qHTS of Yeast-based Assay for SARS-CoV PLP; S. cerevisiae expressing SARS-CoV PLpro, growth rescue; control for the full effect not named in the record; Potency, µM (highest dose often 32.9 µM), without a hit: top-dose activity, positive = growth rescue; hit rate 0.19% among 330,000; AID 485353, 2010; active means well fitted rising curve with a large enough effect; inconclusive means small, poorly fitted or top-dose-only effect; inactive means no such curve, though single readings can be large or run the other way; also: 0% is about no effect; nearly all actives have a fitted effect of over 55% in size; growth read by luminescence after 48 h
Cruzain Triton: qHTS Assay for Promiscuous and Specific Inhibitors of Cruzain (with detergent). Cruzipain (Trypanosoma cruzi), P25779. purified cruzain, Z-FR-AMC fluorescence, 0.01% Triton. Potency, µM, for inactives: max response, negative = inhibition, usual class: inhibitors. hit rate 0.43% among 200,000. AID 1478, 2009;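 also: plate controls were neutral wells for no effect and buffer without enzyme for full effect; nearly all actives have a fitted effect of over 40% in size; top concentration of the series not given in the record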
Target sequence (P25779 123-467 limits assumed): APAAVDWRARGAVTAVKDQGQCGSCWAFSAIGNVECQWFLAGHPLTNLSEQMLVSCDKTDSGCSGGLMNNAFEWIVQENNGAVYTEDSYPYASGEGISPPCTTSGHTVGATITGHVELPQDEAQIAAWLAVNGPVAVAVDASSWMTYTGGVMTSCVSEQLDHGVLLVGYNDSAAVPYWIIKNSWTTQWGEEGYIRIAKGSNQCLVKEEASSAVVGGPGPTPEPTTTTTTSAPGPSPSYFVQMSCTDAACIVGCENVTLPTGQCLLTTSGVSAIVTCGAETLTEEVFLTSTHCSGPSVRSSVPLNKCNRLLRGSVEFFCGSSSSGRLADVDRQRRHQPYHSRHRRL
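Z-FR-AMC hydrolysis (2 uM substrate) by cruzain (1.5 nM) monitored kinetically at ex 360/em 450 nm after 15 min room-temperature compound exposure; 0.01% Triton X-100, pH 5.5, 5 mM DTT.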
StopGo reporter: High Throughput Screening for Foot and Mouth Disease Virus Antivirals. human cells with a luciferase reporter of 2A StopGo recoding; control for the full effect not named in the record. Potency, µM (highest dose often 57.9 µM), for inactives: at the top dose signal change, negative = less light. hit rate 1.2% among 410,000; active = well fitted falling curve with a large enough effect; inconclusive = small, poorly fitted or top-dose-only effect; inactive = no such curve, though single readings can be large or run the other way; tested in HEK293T cells; also: % is scaled to controls: 0 for no effect and ±100 for the full control effect; nearly all actives have a fitted effect of over 45% in size; luciferase light after 4 h
Cruzain noTriton: qHTS Assay for Promiscuous and Specific Inhibitors of Cruzain (without detergent). Potency, µM, for inactives: max response, negative = inhibition, hits mostly inhibitors. AID 1476, 2009. hit rate 2.3% among 200,000. purified cruzain, Z-FR-AMC fluorescence, no detergent. Cruzipain (Trypanosoma cruzi), P25779;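 also: plate controls were enzyme without inhibitor for no effect and buffer without enzyme for full effect; nearly all actives have a fitted effect of over 40% in size; top concentration of the series not given in the record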
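Purified cruzain at 1.5 nM, pre-incubated 15 min with compound at room temperature in 100 mM sodium acetate pH 5.5, 5 mM DTT, 0.00005% Triton X-100. Reaction started with 2 uM Z-FR-AMC; AMC fluorescence increase over 60 s gives rate.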
MARV entry inh: qHTS for inhibitors of binding or entry into cells for Marburg Virus | Marburg virus pseudotyped entry inhibition, cell reporter; control for the full effect not named in the record; about a third of the inactives were read at about 46 µM | Potency, µM (series often up to 37.8 µM), for the others: top-dose activity change, negative = inhibition, usual class: inhibitors | hit rate 1.8% among 300,000; active = well fitted inhibition curve with a large enough effect; inconclusive = small, poorly fitted or top-dose-only effect, or effect the other way; inactive = flat fitted curve, though single readings scatter; tested in HEK293 cells; about a fifth of its hits are not listed in these tables; also: % is scaled to controls: 0 for no effect and ±100 for the full control effect; luciferase read-out
Lassa entry inh: qHTS for Inhibitors of binding or entry into cells for Lassa Virus. AID 540256, 2011. Lassa virus pseudotype entry inhibition, cell reporter; control for the full effect not named in the record. Potency, µM (titrated, usually from 37.9 µM), without a hit: at the top dose activity change, negative = inhibition, actives largely listed as inhibitors. hit rate 1.2% among 300,000; active means well fitted inhibition curve with a large enough effect; inconclusive means small, poorly fitted or top-dose-only effect, or effect the other way; inactive means flat fitted curve, though single readings scatter; tested in HEK293 cells; also: % is scaled to controls: 0 for no effect and ±100 for the full control effect; nearly all actives have a fitted effect of over 50% in size; luciferase read-out
Starred values were filed as active, the others as inactive; ? = inconclusive; · = not tested or not shown; & = joins results of further samples; [ ] = another dose, or the depositor's remark. Unless noted, calls follow the shape of the dose curve; as a rule, active = well fitted curve in the direction sought with a large enough effect; inconclusive = small, poorly fitted or top-dose-only effect, or another doubt; inactive = no such curve, though single readings can be large; an effect the other way counts as inactive or inconclusive. Potency is read from the fitted curve at half-maximal effect.

SMILES	NS1 function inh	RE007 growth inh	SARS PLpro yeast	Cruzain Triton	StopGo reporter	Cruzain noTriton	MARV entry inh	Lassa entry inh
CCOC(=O)c1cc(-c2ccccc2)sc1NC(=O)C(C)N1C(=O)c2ccccc2C1=O (stereo not drawn)	12%	10%	-4%	-5.0%	-5%	25µM*	?	?
CCOc1ccc(OCC)c(NS(=O)(=O)c2ccc3c(c2)CCCN3C(C)=O)c1	·	·	·	-3.6%	46%[activator]	?	·	25%[46.1 µM]
CC(C)Oc1cccc(C(=O)C2CCCN(C(=O)c3ccc4c(c3)OCO4)C2)c1 (stereo not drawn)	-6%	-1%	0%	·	-25%	·	·	·
COC(=O)C(NC(=O)c1ccco1)(Nc1cc(C)ccn1)C(F)(F)F (stereo not drawn)	4%	9%	20%	3.7%	-24%	1%	?	12%
Clc1cccc(CN2CCN(c3nc4nonc4nc3NC3CC3)CC2)c1	-6%	8%	1%	·	?	·	12%	-1%
C=CCOc1ccc(C(=O)N(Cc2ccc(N(C)C)cc2)C2CCS(=O)(=O)C2)cc1 (stereo not drawn)	-15%	-8%	-7%	-1.7%	-18%	3%	-5%	6%
CCN(CC)S(=O)(=O)c1ccc(C(=O)Nc2nnc(NC(=S)Nc3ccccc3)s2)cc1	16%	34%	4%	·	3%	·	?	15%[46.1 µM]
CC(C)(C)c1cc[n+](-c2[nH]c(=O)sc2/C=N/NC(=O)c2ccccc2[O-])cc1	14%	-23%	1%	·	13%	·	-3%[46.1 µM]	-17%
O=c1[nH]cncc1OCc1ccccc1	·	-7%	·	·	-10%	·	4%	17%
CCOc1ccc2nc(NS(=O)(=O)c3cccs3)sc2c1	1%	2%	6%	·	139%[activator]	·	0%	19%
CCc1nnc(NC(=O)CSc2nc3cc(OC)ccc3cc2C)s1	·	21%	1%	·	-23%	·	-7%[46.1 µM]	-18%
O=C1OCCN1C(=O)[C@H]1[C@H](c2ccccc2)C(c2ccccc2)=NN1c1ccc(Br)cc1	·	2%	-9%	-5.2%	-13%	20µM*	·	·
Cc1cccc(C(=O)N(Cc2nc(-c3ccc(Cl)cc3)no2)C(C)C)c1	·	·	·	-0.9%	0%	-2%	·	-9%[46.1 µM]
CC(=O)c1cn(C)c(=O)[nH]c1=O	-3%	-8%	2%	·	-7%	·	18%[46.1 µM]	18%
CC(C)CCN1CCN(Cc2cnc(N3CCCC3)s2)CC1CCO (stereo not drawn)	7%	-3%	0%	·	-17%	·	-3%[46.1 µM]	0%[46.1 µM]
O=C(N/N=C/c1ccccn1)c1ccc2nc[nH]c2c1	3%	-11%	0%	·	21%	·	6%[46.1 µM]	9%
CCOC(=O)CNC(=O)CSc1nnc(NC(=O)c2ccc(C)cc2)s1	·	-11%	8%	·	-60%	·	6.3µM*	?
Cc1ccc(NC(=O)COC(=O)CCC2CCCC2)cc1S(=O)(=O)N1CCOCC1	·	1%	2%	·	8%	·	2%[46.1 µM]	4%[46.1 µM]
COc1cccc(NC(=O)CN(C)C(=O)c2cc(-c3ccccc3)nc3ccccc23)c1	·	-12%	-6%	·	-53%	·	?	-28%
COc1ccc(C(=O)CN2CCN(S(=O)(=O)c3cccc([N+](=O)[O-])c3)CC2)cc1OC	5%	-5%	11%	-3.8%	-11%	-8%	-1%	·
COc1ccc(CCNC(=O)CCCn2c(=O)c3cccn3c3ccc(F)cc32)cc1OC	·	·	·	-0.7%	-10%	2%	·	0%[46.1 µM]
O=S(=O)(O)c1cc(O)ccc1O	·	-3%[18.4 µM]	-5%	-1.4%	-17%	-4%	·	·
COC(=O)C1(C(=O)OC)C(C(=O)c2ccccc2)C1c1ccccc1 (stereo not drawn)	·	-7%	·	·	-1%	·	-1%	12%
COC(=O)COc1ccc(C2NC(=O)NC(c3ccccc3)=C2C(C)=O)cc1Br (stereo not drawn)	-2%	-2%	1%	·	-13%	·	·	·
CCOc1ccccc1C(=O)NC1CC2CCCC(C1)N2C1CC1 (stereo not drawn)	-3%	4%	9%	0.6%	-1%	-1%	-38%	-2%
O=C(Nc1ccc2c(c1)N(C1CCCC1)C(=O)c1ccccc1S2)c1ccc(F)cc1	·	·	·	-0.7%	-27%	?	·	?
COc1ccc(NC(=O)c2cccc(Cl)c2)c[n+]1[O-]	0%	-17%	0%	·	3%	·	6%	14%
Cc1c(S(=O)(=O)N2CCCC(C(=O)O)C2)cnn1C (stereo not drawn)	·	2%	4%	·	3%	·	4%[46.1 µM]	16%[46.1 µM]
C(=NN1CCCCCC1)c1ccccc1	·	-2%	·	·	28%	·	?	11%
O=C(C1=C(O)C(=O)N(CCN2CCOCC2)C1c1ccc(F)cc1)c1cccs1 (stereo not drawn)	-1%	4%	1%	·	8%	·	·	·
CCNc1nc(NC(C)C)nc(Oc2ccc(OCCOc3ccccc3)nn2)n1	1%	-1%	-3%	-1.7%	·	-3%	-5%	15%
CCn1cc(C(=O)NCCc2ccc(OC)c(OC)c2)c(=O)c2cc(S(=O)(=O)N(C)C3CCCCC3)ccc21	·	·	·	-6.7%	-11%	?	11µM*	?
C=CCc1c(C)nc2ccc(C(=O)OCC)cc2c1Cl	0%	-12%	-1%	·	15%	·	?	?
CCOc1ccc(NC(=O)C2CCN(S(=O)(=O)c3cc(-c4noc(C)n4)ccc3C)CC2)cc1	·	·	·	0.1%	-13%	?	·	11%[46.1 µM]
CCCN(CC1CC1)C(=O)COC(=O)c1ccc(CNS(=O)(=O)c2ccc(F)c(Cl)c2)cc1	0%	-6%	10%	-5.7%	-21%	?	-1%	?
CCC1(C)Cc2nc3[nH]c(=S)n(-c4ccccc4)c(=O)c3cc2CO1 (stereo not drawn)	9%	20%	-16%	-1.0%	-29%	?	-1%	-2%
COc1ccc(NC(=S)NCCNC(C)=O)cc1	2%	9%	0%	·	23%	·	·	·
CCOC(=O)C1CCCN(C(=O)Cn2ncc3c(C)n(Cc4ccccc4Cl)c(C)c3c2=O)C1 (stereo not drawn)	·	·	·	-5.0%	?	?	0%[46.1 µM]	0%[46.1 µM]
COC(=O)c1cc(Sc2cccc(Cl)c2Cl)ccn1	-61%	20%	1%	·	?	·	10%	-16%
COc1ccccc1NCc1nnc(-c2ccccc2)o1	-16%	-10%	6%	·	15%	·	-4%[46.1 µM]	16%[46.1 µM]
Cc1sc2nc3ccc(NCc4ccco4)nn3c(=O)c2c1C	-32%	-5%	-25%	-6.5%	-18%	-11%	-12%	-4%
CC(C(=O)N1CCC2(CC1)OCCO2)C1Sc2ccccc2NC1=O (stereo not drawn)	5%	29%	8%	-5.7%	-3%	-1%	11%	1%
CCc1ccc(C(=O)COC(=O)C(Cc2c[nH]c3ccccc23)NC(=O)c2ccc(Br)cc2)cc1 (stereo not drawn)	·	·	·	1.2%	0%	?	·	-7%[46.1 µM]
O=c1n(Cc2ccc(F)cc2Cl)c2ccccc2c2nc(-c3ccccc3)nn12	·	·	·	1.4%	7%	-3%	·	7%[46.1 µM]
O=[N+]([O-])c1cccc(-c2nnc(-c3ccccc3)o2)c1	-5%	?	0%	·	22%	·	?	?
O=C(Nc1ccc(S(=O)(=O)Nc2nccs2)cc1)c1cc(-c2ccccc2)nc2ccccc12	11µM*	-11%	-8%	-9.3%	58%[activator]	1%	-3%	-4%
Cc1cc(C)c2c(n1)nn1c(C)c(CCC(=O)Nc3ccc(C)c(Cl)c3)c(C)nc21	·	·	·	-0.9%	-10%	-10%	11%[46.1 µM]	17%[46.1 µM]
C/C(=N\NC(=O)c1cc(-c2ccc(C)s2)nc2ccccc12)c1cccnc1	-13%	-12%	5%	·	15%	·	-15%[46.1 µM]	-28%[46.1 µM]
CC(=O)c1cccc(N(C(=O)c2ccco2)C(C(=O)NC2CCCC2)c2ccncc2)c1 (stereo not drawn)	-7%	-4%	3%	-2.2%	-6%	-7%	6%	1%
Cc1nn(C2CCS(=O)(=O)C2)c(Cl)c1/C=C/C(=O)OCC(N)=O (stereo not drawn)	8%	2%	0%	·	-11%	·	3%	·

Remaining list, next part:
SMILES	NS1 function inh	RE007 growth inh	SARS PLpro yeast	Cruzain Triton	StopGo reporter	Cruzain noTriton	MARV entry inh	Lassa entry inh
CS(=O)(=O)N1c2cccc3cccc(c23)S1(=O)=O	0%	3%	0%	·	-8%	·	6%[46.1 µM]	-29%[46.1 µM]
COc1ccc(C(=O)CCC(=O)Nc2cccnc2)cc1OC	7%	5%	0%	·	-12%	·	-11%[46.1 µM]	-4%
COc1cc([N+](=O)[O-])ccc1NC(=O)CN1CCCC1	2%	-1%	0%	·	-7%	·	3%[46.1 µM]	6%
CCOC(=O)CN(C(=O)CSc1nnc(-c2ccncc2)n1CCCN(C)C)c1ccccc1	-6%	-4%	2%	4.5%	0%	-6%	-1%&-1%	9%
CCc1ccc(OCC(=O)NCc2nc(-c3cccc(C)c3)no2)c(Br)c1	·	·	·	1.1%	-6%	-2%	24%[46.1 µM]	0%[46.1 µM]
CS(=O)(=O)C1=C(O)C(=O)N(c2ccccc2)C1c1ccccc1 (stereo not drawn)	5%	-3%	1%	-1.4%	?	1%	0%	4%
CCOc1ccc(NC(=O)c2ccc3nccnc3c2)cc1	-12%	8%	8%	2.6%	4%	-2%	24%	14%
COc1cc2c(cc1OC)C(Cc1cc(OC)c(OC)cc1[N+](=O)[O-])=NCC2	·	-23%	·	·	?	·	8%	-1%
O=C(NN=Cc1ccc(Cl)cc1Cl)C1CC1	·	-18%	·	·	-17%	·	-17%	1%
O=C(COC(=O)c1ccc2ccccc2c1O)Nc1ccccc1	·	0%	-12%	·	7%	·	-26%	?
O=C(CN1C(=O)NC(Cc2c[nH]c3ccccc23)C1=O)Nc1ccc(F)cc1F (stereo not drawn)	·	2%	-17%	·	0%	·	4%	?
CC(=O)NC(C)c1nc2ccccc2n1C(C)C (stereo not drawn)	5%	-9%	-1%	1.1%	-21%	4%	8%	16%

Compound activity deposited in PubChem BioAssay by National Center for Advancing Translational Sciences (NCATS).
